AID923 – qHTS Assay for Allosteric/Competitive Inhibitors of Caspase-1: Spectroscopic Profiling in AFC Spectral Region. hit rate 1.1% among 75,000. Potency, µM (titrated, usually from 57.5 µM), without a hit: top-dose fluorescence increase, usual class: activators. compound fluorescence, AFC spectral region (405/520 nm); almost no hit is shown here; active means well fitted activation curve with a large enough effect; inconclusive means small, poorly fitted or top-dose-only effect;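 further: potency means the concentration at half of the fitted maximal effect; 0% is about no effect; scaled to a free AFC standard on each plate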
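Baseline compound fluorescence (AFC region, 405 nm ex/520 nm em) taken from the intercept of kinetic reads with 50 nM caspase-1 and 5 uM Ac-WEHD-AFC; normalized to an on-plate AFC standard curve; compounds titrated up to 57 uM.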
A647 fluor – qHTS Assay for Spectroscopic Profiling in A647 Spectral Region | 59,000 tested, under 10 active | max dye-equivalent concentration, M | Compound fluorescence, A647 channel (570/671 nm), Tris buffer; active means above 1 µM dye equivalent; inconclusive means 0.1 to 1 µM; inactive means 0.1 µM or less;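 further: values scaled relative to a standard on each plate; highest value over a series up to 38 µM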
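Each compound's intrinsic fluorescence at 570 nm excitation and 671 nm emission is measured across its concentration series in 100 mM Tris, pH 8.0, after 15 min at room temperature, and reported relative to an A647 curve.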
Resorufin fluor – qHTS Assay for Spectroscopic Profiling in Resorufin Spectral Region. Compound fluorescence, resorufin region 547/598 nm, buffer; hits give high values. max dye-equivalent concentration, M. hit rate 0.04% among 59,000. AID 588, 2007; active = above 10 nM dye equivalent; inconclusive = 1 to 10 nM; inactive = 1 nM or less; a few of its hits are not listed in these tables; further: highest value over a series up to 38 µM
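Intrinsic fluorescence profiled in the resorufin window (ex 547 nm, em 598 nm) after 15 min at room temperature in pH 8.0 Tris buffer (100 mM); responses normalized against a six-point resorufin standard series as dye-equivalent concentration.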
TSHR agonist – qHTS Assay for Agonists of the Thyroid Stimulating Hormone Receptor; hit rate 0.48% among 73,000; Potency, µM (top dose mostly 57.1 µM), inactives show top-dose activation, most hits filed as activators; Thyrotropin receptor (Homo sapiens), P16473; HEK293-CNG-TSHR cells (CNG channel as cAMP sensor), membrane potential dye, cAMP; AID 926, 2007; active = well fitted activation curve of enough size with the parental cells flat; inconclusive = any curve in the parental cells; inactive = parental cells flat and receptor cells flat or falling; further: potency means the concentration at half of the fitted maximal effect; % of control where 0% means no effect; weak receptor curves with flat parental cells got no call and are not listed
Target sequence (P16473 whole entry, looked up): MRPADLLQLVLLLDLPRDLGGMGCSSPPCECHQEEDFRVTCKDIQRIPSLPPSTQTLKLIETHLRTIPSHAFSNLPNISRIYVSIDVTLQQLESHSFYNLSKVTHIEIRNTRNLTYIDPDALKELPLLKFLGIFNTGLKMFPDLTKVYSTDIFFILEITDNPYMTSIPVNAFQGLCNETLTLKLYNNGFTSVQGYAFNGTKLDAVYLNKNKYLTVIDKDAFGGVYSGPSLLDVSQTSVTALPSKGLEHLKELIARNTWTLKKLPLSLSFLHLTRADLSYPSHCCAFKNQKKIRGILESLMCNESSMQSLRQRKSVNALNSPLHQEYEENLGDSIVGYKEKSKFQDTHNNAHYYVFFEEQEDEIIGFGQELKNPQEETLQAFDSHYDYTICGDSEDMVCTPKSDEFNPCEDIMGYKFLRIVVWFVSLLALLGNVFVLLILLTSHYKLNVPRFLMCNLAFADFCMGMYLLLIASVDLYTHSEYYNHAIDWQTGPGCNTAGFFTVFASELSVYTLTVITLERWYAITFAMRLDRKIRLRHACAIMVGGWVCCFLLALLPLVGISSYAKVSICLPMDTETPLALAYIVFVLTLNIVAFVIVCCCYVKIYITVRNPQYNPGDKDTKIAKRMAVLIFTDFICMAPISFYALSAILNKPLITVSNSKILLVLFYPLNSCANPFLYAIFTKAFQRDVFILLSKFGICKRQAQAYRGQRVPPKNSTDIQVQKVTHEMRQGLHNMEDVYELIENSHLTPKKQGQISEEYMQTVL
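HEK 293 cells stably expressing TSHR and a modified CNG channel, with CNG-only parental cells as counterscreen, were preloaded 60 min at room temperature with membrane potential dye containing 100 uM RO 20-1724. Compound exposure was 30 min, and depolarization was read as fluorescence at 590 nm.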
A488 autofl – qHTS Assay for Spectroscopic Profiling in A488 Spectral Region; compound autofluorescence, A488 spectral region, dye equivalency; hits give high values; max dye equivalency, M; hit rate 0.1% among 59,000; AID 591, 2007; active = above 10 nM dye equivalent; inconclusive = 1 to 10 nM; inactive = 1 nM or less; about half of its hits are not listed in these tables;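 further: highest value over a series up to 38 µM; compound alone in buffer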
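Read-out: relative fluorescence at 480/540 nm, expressed as Alexa 488 dye-equivalent concentration from a six-point A488 standard included per plate. Conditions: 100 mM Tris, pH 8.0; 15 min incubation, room temperature.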
An asterisk follows results filed as active; i = inactive; ? = inconclusive; nt = not tested or not shown; [ ] = remark or other dose.

SMILES	AID923	A647 fluor	Resorufin fluor	TSHR agonist	A488 autofl
Cc1cc(C)n(-c2nc3c(c(=O)[nH]c(=O)n3C)n2CC(O)c2ccccc2)n1 (stereo not drawn)	-2.3%	2e-09	i	15.0%	i
O=S(=O)(c1ccccc1)N1CCN(Cc2ccccc2C(F)(F)F)CC1	-1.9%	1.73e-08	i	29.1%	i
CCCS(=O)(=O)N1CCC(C(=O)N2CCN(C(=O)OCC)CC2)CC1	-0.3%	5.8e-09	i	-2.2%	i
CC(C)N1C(=O)c2ccccc2C1C(=O)NC1CCCCCC1 (stereo not drawn)	0.8%	1e-09	i	?	i
Cc1occc1-c1nnc(SCC(=O)Nc2ccccc2)n1CCc1ccccc1	1.8%	1.88e-08	i	?	i
COc1ccc(C(c2nnnn2Cc2ccccc2)N2CCN(c3ccccc3)CC2)cc1 (stereo not drawn)	-0.3%	1e-09	i	?	i
Cc1nc2cc(CO)ccc2n1C	-2.9%	5.2e-09	i	5.1%	i
CCn1c(SCC(=O)NC2CCCCC2)nnc1-c1cccs1	-1.9%	1.69e-08	i	13.7%	i
COc1ccccc1-c1ccc2ncnc(Nc3ccccc3)c2c1	2.2%	1e-09	i	?	i
CC(C)CCn1c(SCCc2ccccc2)nc2c1c(=O)[nH]c(=O)n2C	0.8%	3.29e-08	i	?	i
CC1Cc2ccccc2N1C(=O)Cn1c(=O)oc2cc(S(=O)(=O)N3CCCCC3)ccc21 (stereo not drawn)	1.2%	nt	nt	-12.8%	nt
CCS(=O)(=O)N1CCC(C(=O)NCCN2CCN(Cc3ccccc3)CC2)CC1	0.3%	1.4e-09	i	?	i
COc1cc(C(=O)Nc2nnc(CC(=O)N3CCOCC3)s2)cc(OC)c1OC	-0.3%	3.61e-08	i	-0.6%	i
O=C(O)CSc1sc(=S)sc1SCC(=O)O	-2.0%	1e-09	i	0.4%	i
CC(C)(N=NC(C)(C)C1=NCCN1)C1=NCCN1	-0.3%[11.5 µM]	1e-09	i	-2.5%[11.4 µM]	i
COc1cccc(NS(=O)(=O)c2ccc3[nH]cc(C(=O)NCCN4CCOCC4)c(=O)c3c2)c1	-0.5%	1e-09	i	0.2%	i
O=C(O)CCc1nc(-c2ccc(Cl)cc2)no1	0.2%	5.9e-09	i	?	i
O=S(=O)(NCc1cccs1)c1cccc(S(=O)(=O)N2CCCCC2)c1	0.1%	2.25e-08	i	-2.4%	i
CCn1c(Oc2ccc(Oc3ncc(Cl)cc3Cl)cc2)nc2c1c(=O)n(C)c(=O)n2C	1.7%	1.3e-08	i	12.1%	i
COc1ccccc1-c1ccc2ncnc(N3CCN(C)CC3)c2c1	-0.8%	1e-09	i	?	i
Cc1cccc(-n2nnc(C(=O)N3CCc4ccccc4C3)c2N)c1	1.9%	2.22e-08	i	0.7%	i
CC(C)CCNC(=O)NC(=O)CSc1nnc(COc2ccccc2Cl)o1	0.4%	1e-09	i	-0.9%	i
CS(=O)(=O)c1ccc(Cl)c(NC(=O)C2CC(=O)N(Cc3ccccc3)C2)c1 (stereo not drawn)	0.6%	1e-09	i	-1.4%	i
CCCn1c(=O)n(C)c(=O)c2c3oc(=O)c(NC(=O)c4ccc(F)cc4)cc3[nH]c21	1.6%	1e-09	i	-0.4%	i
COc1ccccc1CNC(=O)C1CCN(S(=O)(=O)c2cccc3cccnc23)CC1	0.4%	nt	nt	3.7%	nt
COc1ccc(NC(=O)COc2ccccc2C#N)c(S(=O)(=O)N2CCCCC2)c1	-0.5%	2.1e-09	i	?	i
CC/C(=N\O)c1ccc(O)c(OC)c1	-0.8%	nt	nt	-3.8%	nt
COc1cc2c(cc1OC)CN(C(=O)c1cccs1)CC2	-1.1%	9.9e-09	i	10.6%	i
O=C(O)C[C@H](NC(=O)CP(=O)(O)O)C(=O)O.[NH-][C@@H]1CCCC[C@@H]1[NH-].[Pt]	3.2%[11.5 µM]	1e-09	i	0.2%[11.4 µM]	i
CC(=O)Nc1ccc(S(=O)(=O)N2CCN(CCCOc3cc(C)ccc3C)CC2)cc1	0.4%	2.33e-08	i	-4.1%	i
C/C(CCC(=O)OC[C@@H]1O[C@H](C#Cc2ccccc2)C=C[C@@H]1Oc1ccc(C)cc1)=N/O[C@@H](C)c1cc(-c2c(C)cc(C)cc2C)no1	1.0%[11.5 µM]	nt	nt	1.2%[11.4 µM]	nt
CC1CCCC(NC(=O)Cn2cc3c(n2)CCCCC3)C1C (stereo not drawn)	-4.2%	nt	nt	22.0%	nt
O=S(=O)(c1cc(Cl)ccc1Br)N1CCOCC1	-0.2%	nt	nt	6.1%	nt
COc1ccc(-c2nnn(CC(=O)c3c[nH]c4ccccc34)n2)cc1OC	1.2%	3.7e-08	i	-13.9%	i
COCCN1C(=O)c2ccccc2C(C(=O)NCC2CCCO2)C1c1c[nH]c2ccccc12 (stereo not drawn)	-0.9%	2.96e-08	i	0.9%	i
Cc1cc(C(=O)Nc2cc(C)n(Cc3ccc(Cl)cc3)n2)no1	-1.1%	1.2e-08	i	12.8%	i
Cn1cnnc1SCC(=O)c1ccco1	-1.8%	7.6e-09	i	0.2%	i
N#Cc1cccc(-c2cc(NCc3ccccc3)ncn2)c1	1.9%	3.75e-08	i	10.3%	i
COC(=O)c1[nH]nc2c1C(=O)N(C1CCCCC1)C2=O	-0.6%	2.75e-08	i	-4.5%	i
CC1CC(C)CN(CCCNC(=O)COc2cc(=O)n(C)c3ccccc23)C1 (stereo not drawn)	-0.4%	2.5e-09	i	9.3%[11.4 µM]	i
O=C(O)C1CCCCC1C(=O)Nc1ccc2c(c1)OCCO2 (stereo not drawn)	-1.0%	nt	nt	-8.1%	nt
CCOC(=O)C1=C(CN2CCN(c3ccc(F)cc3)CC2)NC(=O)NC1c1cccs1 (stereo not drawn)	-2.2%	2.24e-08	i	5.5%	i
C=CC[C@@H]1C=C[C@@H](O/N=C(/C)CCC(=O)OC[C@@H]2O[C@H](c3ccccc3)C=C[C@@H]2Oc2ccc(OC)cc2)[C@@H](CO)O1	1.5%[11.5 µM]	nt	nt	17.6%[11.4 µM]	nt
CCOC(=O)C1=C(N)N2C(=O)C(C)SC2=C(C(=O)OC)C1c1ccccc1OC (stereo not drawn)	-0.2%	1e-09	i	?	i
COc1ccc2oc(C)c(C(N)=O)c2c1	0.2%	1e-09	i	15.7%	i
COC(=O)CCc1c(C)c(C#N)c2nc3ccccc3n2c1N1CCCC1	15.2%	2.3e-09	i	?	i
CCCCn1c(CCNC(=O)CC)nc2ccccc21	3.1%	nt	nt	10.9%	nt
Cc1noc(/C=C/c2ccco2)c1S(=O)(=O)N1CCC(C(=O)NCc2ccco2)CC1	2.1%	1e-09	i	31.6µM*	i
CCOC(=O)Cn1c(=O)c2c(nc3n2CCCCN3c2ccc(C)cc2)n(C)c1=O	1.0%	4.5e-09	i	1.2%	i
OCCCCNc1cccc2ccccc12	2.3%	4.4e-09	i	?	i
Cc1cc2c(C)nc(-c3ccccc3)nc2o1	2.4%	2.72e-08	i	15.8%	i
CCOC(=O)C1=C(C)N(C)C(=O)NC1c1ccc(C)s1 (stereo not drawn)	1.1%	1.4e-08	i	17.1%	i
O=c1cc(CSc2nnc(COc3ccccc3Cl)o2)nc2sccn12	0.7%	6.6e-09	i	8.4%	i
COc1ccc(CN2CCN(C(=O)c3cc(OC)c(OC)c(OC)c3)CC2)cc1OC	0.3%	nt	nt	4.1%	nt
COc1ccc(CCNC(=O)CC2Nc3ccccc3NC2=O)cc1 (stereo not drawn)	2.8%	1e-09	i	-0.7%	i
CCC1(C)Cc2c(sc3c2c(=O)n(C)c2nnc(SCCc4ccccc4)n32)CO1 (stereo not drawn)	2.2%	nt	nt	13.8%	nt
CCC(CC)C(=O)Nc1cc(C(=O)OC)cc(C(=O)OC)c1	0.6%	1.9e-09	i	6.6%	i
COc1ccccc1C(=O)N(CN1CCCC1=O)c1cccc(Cl)c1	-1.9%	3.6e-08	i	?	i
O=Cc1ccc(Cl)cc1	-3.4%	nt	nt	1.8%	nt
CCOc1cc2nc(-c3ccc(OC)c(OC)c3)nc(N3CCOCC3)c2cc1OC	nt	3.2e-09	i	nt	i

Of the compounds above, 6 have a thiophene ring, fused or not.
SMILES	AID923	A647 fluor	Resorufin fluor	TSHR agonist	A488 autofl
CCn1c(SCC(=O)NC2CCCCC2)nnc1-c1cccs1	-1.9%	1.69e-08	i	13.7%	i
O=S(=O)(NCc1cccs1)c1cccc(S(=O)(=O)N2CCCCC2)c1	0.1%	2.25e-08	i	-2.4%	i
COc1cc2c(cc1OC)CN(C(=O)c1cccs1)CC2	-1.1%	9.9e-09	i	10.6%	i
CCOC(=O)C1=C(CN2CCN(c3ccc(F)cc3)CC2)NC(=O)NC1c1cccs1 (stereo not drawn)	-2.2%	2.24e-08	i	5.5%	i
CCOC(=O)C1=C(C)N(C)C(=O)NC1c1ccc(C)s1 (stereo not drawn)	1.1%	1.4e-08	i	17.1%	i
CCC1(C)Cc2c(sc3c2c(=O)n(C)c2nnc(SCCc4ccccc4)n32)CO1 (stereo not drawn)	2.2%	nt	nt	13.8%	nt

Carrying on.
SMILES	AID923	A647 fluor	Resorufin fluor	TSHR agonist	A488 autofl
N[C@@H](Cc1cnc[nH]1)C(=O)O	-2.8%	3.5e-09	i	5.7%	i
COC(=O)c1ccc(-c2nc(-c3ccc(Br)o3)no2)cc1	1.4%	nt	nt	-2.2%	nt
O=C(Nc1ccc2c(c1)OCCO2)C1CCN(c2cnccn2)CC1	0.0%	3.5e-09	i	-2.3%	i
CC(C)(C)NC(=O)C(c1ccccc1)N(Cc1ccco1)C(=O)c1csnn1 (stereo not drawn)	0.2%	2.1e-09	i	nt	i
CCc1ccc(CNc2ccc(N3CCN(C(C)=O)CC3)cc2)cc1	-1.0%	2.13e-08	i	nt	i
COc1ccc(-c2cc(CCCC(=O)NCc3ccccn3)no2)cc1	2.1%	nt	nt	2.0%	nt
c1ccc(OCc2nn3c(-c4ccccn4)nnc3s2)cc1	nt	1e-09	i	nt	i
c1ccc(-c2csc3nnc(SCc4ccc5c(c4)OCCO5)n23)cc1	-0.2%	1.87e-08	i	?	i
CCC(=O)N1CCc2cc(S(=O)(=O)NCCCN(CC)Cc3ccccc3)ccc21	0.2%	1e-09	i	5.0%	i
CN(C)C(=O)c1ccc(-c2cc(N(C)Cc3ccco3)ncn2)cc1	2.9%	2.4e-09	i	14.7%	i
CC1CN(c2oc(-c3ccccc3Cl)nc2C#N)CC(C)O1 (stereo not drawn)	nt	7.9e-09	i	nt	i
CC(=O)N1CCc2cc(S(=O)(=O)NC(CC(C)C)C(=O)N3CCn4c3nc3ccccc34)ccc21 (stereo not drawn)	-1.5%	5.01e-08	i	-11.8%	i
COc1cc(C)c(S(=O)(=O)Nc2ccc(CC(=O)O)cc2)cc1C	-1.7%	3.09e-08	i	-1.8%	i
CCCCN(CC)C(=O)CN(C)S(=O)(=O)c1cccc2nsnc12	-0.2%	4.4e-09	i	?	i
Cc1ccc(CNC(=O)C2CCN(S(=O)(=O)c3cccs3)CC2)o1	2.0%	3.1e-09	i	-0.2%	i
CCN(CC)CCn1c(-c2ccccc2)nc2c(NCc3ccccc3)nc(C)nc21	0.1%	nt	nt	?	nt
CCOC(=O)c1sc(NC(=O)c2ccc(CC)s2)nc1C	-1.2%	2.97e-08	i	3.0%	i
O=C(O)CC(c1ccccc1)c1ccccc1	-0.9%	1e-09	i	9.6%	i
COc1ccc(-c2c3c(=O)n(C)c(=O)n(C)c3cn2Cc2cccnc2)cc1	-0.4%	1e-09	i	23.1%	i
Cn1c(=O)oc2cc(S(=O)(=O)NCCC(=O)N3CC=C(c4ccccc4)CC3)ccc21	0.9%	3.9e-08	i	nt	i
COc1cccc(-c2nccc(NCc3cccc(C)c3)n2)c1	-0.1%	8.8e-09	i	?	i

Only part of the results is shown (hit frequency here may not be typical).
